# Six1-Eya2 inh: Six1/Eya2 interaction inhibition | activity change, % (test concentration not listed) | 360,000 tested, 0.56% active | AID 651725 | Q15475+O00167 | AlphaScreen GST-Six1/His-Eya2 binding, biochemical; active compounds read low; control for the full effect not named in the record; in the data active = activity change below about -65%; inconclusive = about -30% to -65%; inactive = above about -30%; further: on the % scale 0 is the no-effect control and ±100 the full control effect
# Target sequence (O00167 whole entry, looked up): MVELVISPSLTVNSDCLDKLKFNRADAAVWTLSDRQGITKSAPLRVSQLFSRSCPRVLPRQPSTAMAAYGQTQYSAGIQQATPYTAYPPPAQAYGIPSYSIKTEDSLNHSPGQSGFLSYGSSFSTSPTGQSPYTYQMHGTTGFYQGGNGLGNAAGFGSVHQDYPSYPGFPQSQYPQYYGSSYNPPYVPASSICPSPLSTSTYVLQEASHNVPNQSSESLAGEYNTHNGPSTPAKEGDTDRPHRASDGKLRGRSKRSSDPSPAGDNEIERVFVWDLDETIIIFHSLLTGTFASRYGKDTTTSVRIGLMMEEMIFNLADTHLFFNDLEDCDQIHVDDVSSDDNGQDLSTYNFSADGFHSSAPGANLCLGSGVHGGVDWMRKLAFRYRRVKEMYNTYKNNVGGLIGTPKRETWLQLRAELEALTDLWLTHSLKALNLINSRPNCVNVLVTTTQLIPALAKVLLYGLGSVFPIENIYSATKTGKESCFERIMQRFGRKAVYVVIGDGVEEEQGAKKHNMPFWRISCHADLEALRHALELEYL
# Target sequence (Q15475 whole entry, looked up): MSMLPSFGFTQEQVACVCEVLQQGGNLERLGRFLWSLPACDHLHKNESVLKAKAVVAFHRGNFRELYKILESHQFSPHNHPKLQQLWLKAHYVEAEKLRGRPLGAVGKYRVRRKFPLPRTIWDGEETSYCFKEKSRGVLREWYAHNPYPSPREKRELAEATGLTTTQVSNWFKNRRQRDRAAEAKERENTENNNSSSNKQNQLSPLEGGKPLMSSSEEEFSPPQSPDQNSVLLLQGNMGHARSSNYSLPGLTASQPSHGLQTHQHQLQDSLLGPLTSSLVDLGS
#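 Homogeneous AlphaScreen proximity assay pairing GST-Six1 with His-tagged Eya2 (added as 5X mix: 250 nM and 500 nM) in 50 mM Tris pH 8.0, 300 mM NaCl, 1 mM TCEP. Glutathione donor and nickel acceptor beads; 1 h, 37 °C, dark.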
# D2 potentiator: potentiates the human D2 dopamine receptor allosterically; P14416; DiscoveRx D2 beta-arrestin cells, luminescence, 90 min; 100% = 57 uM dopamine signal; potentiation, % (concentration not given with the values); 360,000 tested, 0.23% active; AID 624464; active = potentiation of 50% or more; inconclusive = 30% to 50%; inactive = 30% or less;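 further: compound concentration not given in the record; tested on top of an EC20 dose of dopamine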
#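 PathHunter beta-arrestin assay in DiscoveRx D2 cells. Compounds were added with an EC20 of dopamine (50 nM final) for 90 min at 37 deg C. Luminescence was read 1 h after detection reagent, with 57 uM dopamine as the EC100 control.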
# CtBP-E1A inh: blocks the CtBP interaction with E1A; AlphaScreen GST-E1A/His-CtBP binding, 1536-well; active compounds read low; control for the full effect not named in the record; activity change, % (test concentration not listed); 340,000 tested, 0.49% active; in the data active means activity change below about -65%; inconclusive means about -30% to -65%; inactive means above about -30%; further: on the % scale 0 is the no-effect control and ±100 the full control effect
#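 AlphaScreen with 125 nM GST-E1A and 125 nM His-CtBP (5X stocks) in Tris pH 8.0, 300 mM NaCl, BSA, Tween 20, TCEP. Compounds preincubated 2 h at 37 deg C, then glutathione donor/nickel acceptor beads added for 1 h at 37 deg C in dark.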
# PINK1 modulator: PINK1 expression modulation | PINK1 immunofluorescence, high-content cytometry, 24 h | Potency, µM (top dose mostly 76.6 µM), without a hit: at the highest dose activation (PINK1 increase), usual class: activators | 410,000 tested, 0.2% active | AID 624263; active = well fitted activation curve with a large enough effect; inconclusive = small, poorly fitted or top-dose-only effect; inactive = flat fitted curve, though single readings scatter; cell line not stated here;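 further: potency means the concentration at half of the fitted maximal effect; % of control where 0% means no effect; nearly all actives have a fitted effect of over 65% in size; a mitochondrial uncoupler was the plate control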
#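 Stable cell line, 250 cells/well, 12 h attachment; compounds pinned at 5 concentrations, 24 h; CCCP control. Fixed with nuclear dye, primary antibodies 12 h at 10 degrees C, secondary plus cell stain; laser-scanning cytometer read.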
# TRPML1 ag: activates the human TRPML1 channel; Q9GZU1; TRPML1-expressing cells, Ca2+ dye fluorescence, FDSS; host cell line not named in the record; reference of the full effect not given here; activation, % (concentration not given with the values); 410,000 tested, 0.12% active; in the data active = activation above about 50%; inconclusive = about 30% to 50%; inactive = below about 30%; further: 0% is about no effect; the text of the record puts the active cut at 80%
#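 Tet-induced TRPML1-DL cells, 1,500 per well, cultured overnight, were loaded with a no-wash Ca2+ dye for 45–90 min. Calcium fluorescence was recorded on the FDSS for 110 s after compound addition, before the EC80 agonist (4 uM 54-4) was added.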
# D2 ag: human D2 receptor agonism in beta-arrestin assay | P14416 | DiscoveRx PathHunter D2 beta-arrestin, luminescence, 90 min; 100% = 57 uM dopamine signal | activation, % (no concentration beside the values) | 360,000 tested, 0.084% active; in the data active = activation above about 40%; inconclusive = about 15% to 40%; inactive = below about 15%; further: compound concentration not given in the record; the text of the record calls up to 30% inactive
#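 DiscoveRx PathHunter D2 beta-arrestin cells (2,100/well) attached overnight, then compound-stimulated 90 min at 37 C in HBSS/10 mM HEPES/0.1% Tween-20 buffer; beta-galactosidase complementation read by luminescence after 1 h at ambient temperature. Dopamine 57 uM final (EC100) as control.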
# Numbers without * were called inactive; ? = inconclusive; / = not tested or not shown; [ ] = remark or other dose.
SMILES,Six1-Eya2 inh,D2 potentiator,CtBP-E1A inh,PINK1 modulator,TRPML1 ag,D2 ag
CCOC(=O)CCCNS(=O)(=O)c1c(C)ccc2nsnc12,-8,-5,3,2.2%,0.1,-1.3
O=C(CCN1C(=O)S/C(=C\c2ccc(F)cc2)C1=O)Nc1ccc(O)cc1C(=O)O,-22,2,/,0.6%,0.0,5.9
C=CC[C@H](CC(=O)N(CCO)Cc1ccccc1)C(=O)N[C@H](COC(=O)[C@@H](CC=C)Cc1ccc(F)cc1)Cc1c[nH]c2ccccc12,-9,2,-2,0.7%,0.9,-5.3
COC(=O)c1cc(-c2cccs2)[nH]n1,1,-12,/,1.3%,1.1,-5.2
COc1ccc(C)cc1N(CC(=O)NC(C)c1ccccc1)S(C)(=O)=O (stereo not drawn),9,-4,-3,-0.8%,-0.2,-1.4
CC(C)NC(=O)CSc1nnc(-c2ccc3ncccc3c2)n1C,1,-20,/,3.6%,-0.7,-6.1
COC(=O)[C@]12C(=O)NC[C@H](CN1c1ccc(Cl)c(C)c1)N2C,1,-4,1,0.7%,-0.1,-1.5
CC(=O)c1cccc2c(O)c(C3=Nc4ccccc4C3=O)[nH]c12,?,-27,-29,-1.2%,-1.0,-7.0
Cc1cc(=O)oc2cc(OCC(=O)Nc3ccc(F)cc3F)ccc12,-7,-7,-1,11%,0.2,-3.8
Cc1nc2ccccn2c1/C(O)=C1\C(=O)C(=O)N(CCCn2ccnc2)C1c1ccncc1 (stereo not drawn),16,-5,0,1.1%,0.7,-3.0
COC(=O)CCC(C)C1CCC2C3CCC4CC(O)CCC4(C)C3=CC(=O)C12C (stereo not drawn),-7,7,-5,0.3%,1.8,2.5
O=C(N/N=C\c1cccnc1)c1cc(-c2ccc(Cl)s2)[nH]n1,0,1,-17,4.9%,0.8,0.7
CC(C)(C)n1ncc2c(=O)n(CC(=O)Nc3ccc4c(c3)OCO4)cnc21,-1,-29,-1,-0.8%,-0.8,-3.1
FC(F)(F)c1cccc(Cc2noc(CN3CCCC(OCc4ccccn4)C3)n2)c1 (stereo not drawn),-13,-6,4,1.9%,0.2,2.0
CC1(C)C([N+](=O)[O-])C(c2ccc(F)cc2)NC(c2ccc(F)cc2)C1[N+](=O)[O-] (stereo not drawn),-6,0,-3,8.8%,1.9,-4.5
CC(=O)Nc1ccc(S(=O)(=O)N(C)CCOCc2ccccc2)cc1,1,-4,15,-2.8%,0.6,-1.4
CC(=O)c1ccc(OCC(O)CN2CCN(S(=O)(=O)c3c(C)c(C)cc(C)c3C)CC2)cc1 (stereo not drawn),-4,-7,-8,-0.3%,1.5,6.7
O=C(NCCC1CCCCN1S(=O)(=O)c1ccc(F)cc1)C(=O)Nc1ccccc1F (stereo not drawn),-5,-3,1,6.0%,-0.3,1.5
COc1cc(CC(=O)O)ccc1OCc1ccccc1,-12,-11,6,2.4%,-0.9,-1.6
CCOc1ccccc1C=NNC(=O)C1CC1,-3,-7,2,-2.5%,-0.1,-3.2
CCCCN(C(=O)NC(=O)C1=C(N2CCOCC2)/C(=C/c2ccccc2)CC1)S(C)(=O)=O,2,-12,2,/,-0.2,-2.2
O=C(N/N=C/c1ccc([N+](=O)[O-])cc1)c1cc(-c2ccc3c(c2)OCO3)n[nH]1,-1,-14,/,1.4%,-0.8,-3.7
Cc1ccc(-c2nn(-c3ccccc3)cc2C(=O)NC2CCC(O)CC2)cc1 (stereo not drawn),-2,-1,2,1.4%,1.2,-0.5
O=C(CN1C(=O)C2CC=CCC2C1=O)Nc1nc2ccccc2s1 (stereo not drawn),0,-9,-11,-0.5%,0.7,8.6
Cn1c(=O)[nH]c(=O)c2cc(C(=O)c3cc(F)ccc3O)cnc21,-13,-1,0,-1.8%,-0.1,0.8
O=C(c1cc2ccccc2o1)N(C1CC1)C1(C(=O)Nc2ccccc2)CCCC1,-6,-8,12,4.9%,0.0,-1.3
O=C(CSc1nnc(CNC(=O)c2ccco2)o1)Nc1ccc(Br)cc1,-1,-9,/,0.8%,2.3,1.5
Cc1nn(Cc2c(F)cccc2Cl)c(C)c1[N+](=O)[O-],6,3,12,1.3%,0.0,1.7
Brc1ccccc1OCCCOc1cccc2cccnc12,7,-28,/,0.0%,3.9,-3.5
N#C/C(=C\c1cc([N+](=O)[O-])ccc1Cl)C(N)=O,-4,5,0,6.0%,0.4,-0.8
CCOC(=O)c1ccc(NC(=O)c2ccccc2)cc1,8,-6,12,2.8%[38.3 µM],0.4,1.9
Nc1ncnc2nc(N3CCN(C(=O)c4ccccc4)CC3)[nH]c12,0,-14,1,6.2%,0.2,-3.0
O=c1c2[nH]c3ccccc3c2ncn1C1CCCCC1,0,-4,-1,-0.5%,2.7,2.7
Cn1c(C2CC(=O)N(Cc3ccccc3)C2)nc2ccccc21 (stereo not drawn),5,-11,0,-1.2%,-0.2,-3.1
CCOC(=O)c1sc(NNC(=O)c2ccc(F)cc2)nc1C,1,8,0,0.6%,-0.2,-1.7
O=C(OC1CCN(c2ncc(C(F)(F)F)cc2Cl)CC1)c1ccc(Cl)cc1,8,8,9,2.3%,-1.2,-0.2
CCN(C(=O)COC(=O)c1nn(-c2ccccc2)c(=O)c2ccccc12)C1CCS(=O)(=O)C1 (stereo not drawn),-3,1,6,2.5%,2.1,-3.1
CC(OC(=O)Cc1coc2cc3c(cc12)CCC3)C(=O)NCc1ccc2c(c1)OCO2 (stereo not drawn),-4,-5,-1,8.7%,2.4,-1.3
CC1(C(=O)NS(=O)(=O)c2ccccc2Cl)CCN1C(=O)CCc1ccccc1 (stereo not drawn),10,-6,-14,0.6%,0.6,3.4
O=C(N/N=C/c1ccco1)C1COc2ccccc2O1 (stereo not drawn),0,-4,12,3.2%,0.0,-4.5
CC(C)(C)SCCNS(=O)(=O)c1ccc(Cl)cc1,4,-2,0,3.4%,1.4,2.2
CCCCCCCCN1C(=O)N(C)C(N(O)C(=O)NC)C1(C)C (stereo not drawn),-2,-6,5,-2.2%,-0.6,0.0
COc1ccc(CCNS(=O)(=O)CCNC(=O)c2ccc3c(c2)OCO3)cc1,-2,-2,-1,0.0%,-0.3,0.0
O=C(COc1ccc(Cl)cc1)N(Cc1ccc(F)cc1)C1CCS(=O)(=O)C1 (stereo not drawn),-1,-12,1,-2.2%,0.4,-2.2
CCc1ccccc1NC(=O)CCCN1C(=O)C2CC=CCC2C1=O (stereo not drawn),4,3,5,-0.2%,1.2,-5.5
CCO[C@H]1OC(C(=O)N2CCN(Cc3ccc4c(c3)OCO4)CC2)=C[C@@H](c2ccc3c(c2)OCO3)[C@@H]1CCCO,-6,-2,-1,0.5%,0.1,1.4
C[C@@H]1CN([C@H](C)CO)S(=O)(=O)c2ccc(C#Cc3cccc(F)c3)cc2O[C@@H]1CN(C)C(=O)CN1CCOCC1,-23,2,-16,15%,1.4,-12
CCN(CC)Cc1oc(CO)cc(=O)c1O,-4,4,0,-0.7%,0.6,-2.0

# Ordered by value in CtBP-E1A inh (falling): 3 from the list above.
Structure | Six1-Eya2 inh | D2 potentiator | CtBP-E1A inh | PINK1 modulator | D2 ag
Nc1ncnc2nc(N3CCN(C(=O)c4ccccc4)CC3)[nH]c12 | 0 | -14 | 1 | 6.2% | -3.0
C=CC[C@H](CC(=O)N(CCO)Cc1ccccc1)C(=O)N[C@H](COC(=O)[C@@H](CC=C)Cc1ccc(F)cc1)Cc1c[nH]c2ccccc12 | -9 | 2 | -2 | 0.7% | -5.3
CC1(C(=O)NS(=O)(=O)c2ccccc2Cl)CCN1C(=O)CCc1ccccc1 (stereo not drawn) | 10 | -6 | -14 | 0.6% | 3.4

# (continued)
SMILES,Six1-Eya2 inh,D2 potentiator,CtBP-E1A inh,PINK1 modulator,TRPML1 ag,D2 ag
CN1C(C(=O)Nc2ncccn2)=C(O)c2ccccc2S1(=O)=O,-7,-3,2,1.9%,-0.1,-0.6
O=S(=O)(Nc1cccc(-c2cn3cccnc3n2)c1)c1ccc(F)cc1,-67*,?,-1,-1.6%,-0.4,4.7
Cc1ccc(OCC(=O)Oc2c(C)cccc2C)cc1C,10,1,16,?,-0.1,-3.2
CCC1=NN(C(=O)Cc2ccc([N+](=O)[O-])cc2)C(O)(c2ccc(Br)cc2)C1 (stereo not drawn),-9,0,2,3.3%,3.7,-0.1
COc1cccc(C(=O)Nc2nnc(S(=O)(=O)N(C)Cc3ccccc3)s2)c1,5,-1,0,3.9%,-0.8,0.6
O=C(c1ccncc1)c1nccn1-c1ccccn1,2,-10,13,-1.1%[38.3 µM],0.0,0.5
CCN1c2ccccc2-c2nc3ccccc3n2C1c1cccnc1 (stereo not drawn),-28,-18,4,/,1.9,-4.8
CCOC(=O)c1oc2ccccc2c1NC(=O)c1ccc(Cl)s1,12,-15,16,4.1%,-0.5,-6.4

# Gathered by group, the compounds so far containing fluorine
SMILES,Six1-Eya2 inh,D2 potentiator,CtBP-E1A inh,PINK1 modulator,TRPML1 ag,D2 ag
O=C(CCN1C(=O)S/C(=C\c2ccc(F)cc2)C1=O)Nc1ccc(O)cc1C(=O)O,-22,2,/,0.6%,0.0,5.9
C=CC[C@H](CC(=O)N(CCO)Cc1ccccc1)C(=O)N[C@H](COC(=O)[C@@H](CC=C)Cc1ccc(F)cc1)Cc1c[nH]c2ccccc12,-9,2,-2,0.7%,0.9,-5.3
Cc1cc(=O)oc2cc(OCC(=O)Nc3ccc(F)cc3F)ccc12,-7,-7,-1,11%,0.2,-3.8
FC(F)(F)c1cccc(Cc2noc(CN3CCCC(OCc4ccccn4)C3)n2)c1 (stereo not drawn),-13,-6,4,1.9%,0.2,2.0
CC1(C)C([N+](=O)[O-])C(c2ccc(F)cc2)NC(c2ccc(F)cc2)C1[N+](=O)[O-] (stereo not drawn),-6,0,-3,8.8%,1.9,-4.5
O=C(NCCC1CCCCN1S(=O)(=O)c1ccc(F)cc1)C(=O)Nc1ccccc1F (stereo not drawn),-5,-3,1,6.0%,-0.3,1.5
Cn1c(=O)[nH]c(=O)c2cc(C(=O)c3cc(F)ccc3O)cnc21,-13,-1,0,-1.8%,-0.1,0.8
Cc1nn(Cc2c(F)cccc2Cl)c(C)c1[N+](=O)[O-],6,3,12,1.3%,0.0,1.7
CCOC(=O)c1sc(NNC(=O)c2ccc(F)cc2)nc1C,1,8,0,0.6%,-0.2,-1.7
O=C(OC1CCN(c2ncc(C(F)(F)F)cc2Cl)CC1)c1ccc(Cl)cc1,8,8,9,2.3%,-1.2,-0.2
O=C(COc1ccc(Cl)cc1)N(Cc1ccc(F)cc1)C1CCS(=O)(=O)C1 (stereo not drawn),-1,-12,1,-2.2%,0.4,-2.2
C[C@@H]1CN([C@H](C)CO)S(=O)(=O)c2ccc(C#Cc3cccc(F)c3)cc2O[C@@H]1CN(C)C(=O)CN1CCOCC1,-23,2,-16,15%,1.4,-12
O=S(=O)(Nc1cccc(-c2cn3cccnc3n2)c1)c1ccc(F)cc1,-67*,?,-1,-1.6%,-0.4,4.7
